PINK1 expr mod = changes PINK1 expression; PINK1 immunofluorescence, high-content cytometry, 24 h; Potency, µM (titrated, usually from 76.6 µM), for the others: top-dose activation (PINK1 increase), usual class: activators; 410,000 compounds, 0.2% hits; AID 624263; active = well fitted activation curve with a large enough effect; inconclusive = small, poorly fitted or top-dose-only effect; inactive = flat fitted curve, though single readings scatter; cell line not stated here;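 also: potency is read from the fitted curve at half-maximal effect; % of control where 0% means no effect; nearly all actives have a fitted effect of over 65% in size; a mitochondrial uncoupler was the plate control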
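Stable cell line, 250 cells/well, 12 h attachment; compounds pinned at 5 concentrations, 24 h; CCCP control. Fixed with nuclear dye, primary antibodies 12 h at 10 degrees C, secondary plus cell stain; laser-scanning cytometer read.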
TRPML1 agonist = activates the human TRPML1 channel | TRPML1-expressing cells, Ca2+ dye fluorescence, FDSS; host cell line not named in the record; reference of the full effect not given here | activation, % (concentration not given with the values) | 410,000 compounds, 0.12% hits | AID 624414; in the data active = activation above about 50%; inconclusive = about 30% to 50%; inactive = below about 30%; also: 0% is about no effect; the text of the record puts the active cut at 80%
Target sequence (Q9GZU1 whole entry, looked up): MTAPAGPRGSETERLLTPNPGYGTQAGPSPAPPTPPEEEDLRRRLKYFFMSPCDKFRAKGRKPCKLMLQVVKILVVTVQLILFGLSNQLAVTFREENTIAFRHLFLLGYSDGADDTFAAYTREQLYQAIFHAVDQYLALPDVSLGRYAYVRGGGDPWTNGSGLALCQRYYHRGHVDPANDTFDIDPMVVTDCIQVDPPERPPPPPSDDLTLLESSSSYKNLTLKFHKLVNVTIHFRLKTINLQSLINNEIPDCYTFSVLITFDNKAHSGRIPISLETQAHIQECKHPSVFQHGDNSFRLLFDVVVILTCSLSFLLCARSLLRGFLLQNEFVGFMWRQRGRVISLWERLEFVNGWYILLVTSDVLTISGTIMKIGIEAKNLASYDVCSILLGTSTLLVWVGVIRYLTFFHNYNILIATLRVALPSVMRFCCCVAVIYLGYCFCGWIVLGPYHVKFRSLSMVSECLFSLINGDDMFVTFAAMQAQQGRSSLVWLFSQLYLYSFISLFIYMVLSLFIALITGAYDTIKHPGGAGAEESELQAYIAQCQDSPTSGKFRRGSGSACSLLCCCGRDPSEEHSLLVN
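Tetracycline-induced TRPML1-DL cells are seeded and incubated overnight before loading with a no-wash Ca2+ dye and quencher. Agonist activity is taken from the 110 s fluorescence read following compound pin-transfer on an FDSS, before EC80 54-4 challenge.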
* hit, by the source's call; ? = inconclusive. Only part of the results is shown. The share of hits here may be higher or lower than overall.

Second line of a record – PINK1 expr mod, TRPML1 agonist
O=C(Nc1cc(F)ccc1F)c1ccc(CN2CC(=O)N3CCCCC3C2=O)cc1 (stereo not drawn)
→ -1.4%, 0.4
Cc1ccccc1OCCn1cc(C(=O)c2ccco2)c2ccccc21
→ -0.4%, 1.0
NC(=O)C1CCN(C(=O)Cn2c(-c3cccs3)cc3ccccc32)CC1
→ 0.3%, 0.5
COc1ccccc1-c1cc(C(=O)N2CCCCC2C)no1 (stereo not drawn)
→ 4.4%, 2.6
CC(=O)N1CCc2cc(S(=O)(=O)NC(Cc3ccccc3)C(=O)Nc3ccc(C)cc3C)ccc21 (stereo not drawn)
→ -1.4%, -1.0
CCC(=O)N1c2ccccc2CC1C(=O)NCc1cc(Br)ccc1OC (stereo not drawn)
→ 5.5%, 0.7
CCOc1ccc(NC(=O)CSC2=Nc3ccccc3C3=NC(CCC(=O)NCc4ccco4)C(=O)N23)cc1 (stereo not drawn)
→ -0.5%, 0.9
Cc1ccc2c(CC(=O)Nc3ccc(S(=O)(=O)N4CCCCC4)cc3)coc2c1
→ 0.2%, 0.4
Cc1cccc(NC(=O)c2ccc(-n3cnc4cccnc43)cc2)c1C
→ -1.4%, 0.7
COc1cc2ccccc2cc1C(=O)OCC(=O)Nc1ccc(Br)cc1
→ 3.2%, 0.0
Cc1ccc(OCC(=O)Nc2c(C(=O)c3ccc(Cl)cc3)oc3ccccc23)cc1C
→ 0.2%, 0.4
COc1ccccc1NC(=O)Cn1c(=O)n(-c2ccccc2Cl)c(=O)c2sc3ccccc3c21
→ 2.9%, 1.3
CCOc1cc(C2NC(=O)c3c(sc4c3CCN(C)C4)N2)ccc1OC(=O)c1ccccc1Cl (stereo not drawn)
→ 2.3%, -1.0
Cc1cc(C)n2nc(CNC(=O)c3ccccc3Cl)nc2n1
→ 1.7%, 0.5
Cc1cc2oc(C(=O)N(Cc3ccc(N(C)C)cc3)Cc3ccco3)c(C)c2cc1Cl
→ 1.1%, -0.3
COc1ccc(-c2nc3scc(CCNS(=O)(=O)c4cccs4)n3n2)cc1
→ 0.6%, 3.8
COc1ccc(NC(=O)C2CCN(C(=O)c3sc4nc[nH]c(=O)c4c3C)CC2)cc1Cl
→ 0.1%, -0.4
COc1cc(CN(C(=O)COc2ccc(Cl)cc2)c2ccccn2)cc(OC)c1OC
→ -0.4%, 1.4
CCOCCCN1C(=O)CN(C2CCCCCC2)C(=O)C1c1ccc(OCC)c(OC)c1 (stereo not drawn)
→ 2.5%, -0.2
COc1cccc(Cc2nc3ccccc3nc2SCC(=O)Nc2cccc(C)c2)c1
→ 9.0%, 2.4
O=C(Nc1cccc(C(=O)OCc2cc(=O)n3nc(C4CC4)sc3n2)c1)c1cccc(Cl)c1
→ -0.3%, -0.4
COC(=O)c1ccc(NC(=O)CSc2nc3ccc(OC)cc3[nH]2)cc1
→ -0.2%, 1.5
COc1ccc2cc(S(=O)(=O)c3ccccc3F)c(=O)oc2c1
→ 7.2%, -0.5
COc1ccc(-c2noc(CN(C(=O)Cc3ccc(C)cc3)C(C)C)n2)cc1
→ 0.5%, -0.3
CCN1CCOC(=O)C1CC(=O)Nc1cc(C)cc(C)c1 (stereo not drawn)
→ -0.4%, 1.9
O=C(CS(=O)(=O)c1nc(-c2ccc(Cl)cc2)cn1-c1ccccc1)Nc1cccc(Cl)c1
→ 1.4%, 0.6
CCOC(=O)N1CCc2c(sc(NCc3ccc(OC)c(OC)c3OC)c2C(=O)Nc2ccc(OC)cc2OC)C1
→ 1.3%, 0.8
COc1ccccc1CNC(=O)CCCn1c(=O)c2ccccc2n(Cc2ccccc2C#N)c1=O
→ -0.2%, 1.9
Cc1cccc(-c2nc(C)c(CCNC(=O)c3cccs3)s2)c1
→ -1.8%, 2.5
CCOC(=O)c1c(C)[nH]c(C)c1S(=O)(=O)N1CCCC(C(=O)NCc2cccc(OC)c2)C1 (stereo not drawn)
→ 1.5%, -1.0
Cc1cc(S(=O)(=O)Nc2cccc(C(=O)O)c2)c(C)c(S(=O)(=O)c2ccccc2)c1
→ 0.5%, 0.7
CCc1ccc(NC(=O)Cn2c(=O)n(CCC(C)C)c(=O)c3cccnc32)cc1
→ 0.8%, -0.1
CCCCOC(=O)c1cccc(NC(=O)c2cc3ccccc3o2)c1
→ 2.7%, 0.6
CSc1nc2c(sc3ccccc32)c(=O)n1Cc1ccc(C)cc1
→ 0.9%, -0.9
CCOc1ccc(C2C(=O)N(C3CCCCCC3)CC(=O)N2CCC2=CCCCC2)cc1OC (stereo not drawn)
→ 3.2%, 3.7
O=C(c1ccccc1)N(Cc1ccco1)Cc1cccs1
→ 1.4%, 2.7
COc1ccc(N(C(=O)COc2c(C)cccc2C)S(=O)(=O)c2ccc(Cl)cc2)cc1
→ 7.0%, 0.0
CCCC[n+]1c(/C=C/c2c(OC)cc(OC)cc2OC)ccc2ccccc21
→ 5.62µM*, 14.9
Cc1ccc(O)c(-c2n[nH]c3c2C(c2ccc(F)cc2)N(Cc2ccco2)C3=O)c1 (stereo not drawn)
→ 3.6%, 4.5
COc1ccc(-n2cc(-c3ccc4c(c3)OCO4)n(CC(=O)Nc3cccc(C)c3C)c2=O)c(OC)c1
→ 0.4%, -0.2

Five compounds picked at random from the list so far:
Second line of a record – PINK1 expr mod, TRPML1 agonist
Cc1cc(S(=O)(=O)Nc2cccc(C(=O)O)c2)c(C)c(S(=O)(=O)c2ccccc2)c1
→ 0.5%, 0.7
CCc1ccc(NC(=O)Cn2c(=O)n(CCC(C)C)c(=O)c3cccnc32)cc1
→ 0.8%, -0.1
COc1ccccc1CNC(=O)CCCn1c(=O)c2ccccc2n(Cc2ccccc2C#N)c1=O
→ -0.2%, 1.9
O=C(CS(=O)(=O)c1nc(-c2ccc(Cl)cc2)cn1-c1ccccc1)Nc1cccc(Cl)c1
→ 1.4%, 0.6
O=C(c1ccccc1)N(Cc1ccco1)Cc1cccs1
→ 1.4%, 2.7

(cont.)
Second line of a record – PINK1 expr mod, TRPML1 agonist
C/C=C(\NNC(C)=O)c1ccc(O)cc1
→ 2.2%, -1.3
CCOc1ccc(S(=O)(=O)Nc2ccc3c(c2)N(C(C)=O)CCC3)cc1
→ 1.8%, 1.6
CC(C)c1ccc(C2=CC(c3ccc(C(C)C)cc3)n3nnnc3N2)cc1 (stereo not drawn)
→ 3.0%, 0.3
Cc1oc(-c2ccccc2F)nc1CS(=O)CC(=O)NC(C)C (stereo not drawn)
→ 0.2%, -0.5
CCOc1ccc(NC(=O)Cn2c(C)cc3ccccc3c2=O)cc1
→ -0.3%, -1.1
CCOc1ccc(NC(=O)N2CCN(Cc3cc(=O)n4nc(-c5ccc(OC)cc5)sc4n3)CC2)cc1
→ 3.8%, -0.3
COc1ccc(CNC(=O)c2sc3nc4n(c(=O)c3c2C)CCC4)cc1
→ 1.4%, -0.5
Cc1ccc(-n2nc(C(=O)Nc3cccc(C#N)c3)c3c4ccccc4n(C)c3c2=O)cc1
→ 2.4%, 1.2
CCCN1C(=O)c2[nH]nc(-c3ccccc3)c2C1c1cccc(O)c1 (stereo not drawn)
→ 0.0%, 0.0
COc1cc(Nc2nc(SCc3cccc(Cl)c3)nc3ccccc23)cc(OC)c1
→ 6.5%, 2.2
COc1ccc(CN2C(=O)N(c3ccc(F)cc3)C(=O)C2CC(=O)Nc2ccccc2)cc1 (stereo not drawn)
→ 0.2%, -0.4
Cc1ccccc1Nc1cc(C(=O)NC2CCCC2)c2ccccc2n1
→ 11.2%, 1.2
Cc1cc2n(n1)CCCN2C(=O)Nc1ccc(C)c(Cl)c1
→ 1.0%, 0.6
O=C(Cn1ncc2c1-c1ccccc1OC2)N1CCN(c2ccccc2)CC1
→ 0.1%, -0.5
CCC(C)NC(=O)c1cnn(-c2cccc(F)c2)c1-n1cccc1 (stereo not drawn)
→ -0.1%, 1.8
CCOc1ccc2nc(NC(=O)c3cc(=O)c4ccc(C)cc4o3)sc2c1
→ 7.5%, 1.6
CCCN(CCC)C(=O)Cn1c(SCc2cccc(F)c2)nc2cccnc21
→ 0.3%, -0.7
Cc1ccccc1OCC(=O)NCC(=O)OCC(=O)c1ccc(F)cc1
→ -0.7%, -0.7
COc1ccc(NCc2cc3cc4c(cc3n(CC(=O)Nc3ccc(F)cc3)c2=O)OCCO4)cc1
→ -0.6%, 4.8
Cc1sc2c(c1C)c(=O)n(-c1ccc(Cl)cc1)c(=O)n2Cc1c(F)cccc1Cl
→ 1.3%, -0.9

In a second layout: entries from further up
Molecule: CC(C)c1ccc(C2=CC(c3ccc(C(C)C)cc3)n3nnnc3N2)cc1 (stereo not drawn)
  PINK1 expr mod = 3.0%
  TRPML1 agonist = 0.3
Molecule: COc1ccc(CN2C(=O)N(c3ccc(F)cc3)C(=O)C2CC(=O)Nc2ccccc2)cc1 (stereo not drawn)
  PINK1 expr mod = 0.2%
  TRPML1 agonist = -0.4
Molecule: COc1ccc(CNC(=O)c2sc3nc4n(c(=O)c3c2C)CCC4)cc1
  PINK1 expr mod = 1.4%
  TRPML1 agonist = -0.5

The list goes on:
| mol | PINK1 expr mod | TRPML1 agonist |
| --- | --- | --- |
| CCOc1ccc(C2C=C(c3cccc(OC)c3)Nc3nnnn32)cc1 (stereo not drawn) | 2.2% | 3.2 |
| CCOc1ccccc1NC(=O)c1c(NC(=O)c2cccc(C)c2)sc2c1CCC2 | 1.8% | -1.0 |
| COCc1nc2ccccc2n1Cc1ccc(C(C)(C)C)cc1 | 4.4% | 0.1 |
| CCCCCCCCCC[n+]1ccc(/C=C/c2ccc(N(C)C)cc2)c2ccccc21 | ? | 56.7* |
| Cc1ccc(-c2nc3n(n2)C(=O)CC(c2ccc(Cl)cc2)S3)cc1 (stereo not drawn) | 1.1% | -0.6 |
| CC(=O)c1cccc(NC(=O)Cn2c(C)c3cnn(-c4ccccc4)c(=O)c3c2C)c1 | 0.7% | -0.5 |
| CCc1ccccc1NC(=O)CSc1nc2ccccc2nc1Cc1cccc(OC)c1 | ? | 2.2 |
| O=C(NCc1ccc2c(c1)CCN2C(=O)c1ccc(F)cc1)c1c(F)cccc1F | 0.7% | 0.4 |
| COc1ccc(C)cc1NC(=O)CCn1nc(C)cc1C | -0.5% | 0.7 |
| COc1cc(NC(=O)CSC2=Nc3ccccc3N=C(c3ccc(F)cc3)C2)cc(OC)c1 | 6.4% | 0.3 |
| CCCCOc1ccc(Cn2c(=O)sc3ccccc32)cc1 | 6.2% | 0.3 |
| COC(=O)c1cc(NC(=O)CC2C(=O)OCCN2Cc2ccccc2)cc(C(=O)OC)c1 (stereo not drawn) | 0.7% | 1.1 |
| O=C(c1ccc2c(Cl)c3c(nc2c1)CCCC3)N1CCN(c2cccc(Cl)c2)CC1 | 1.7% | 0.0 |
| Cc1ccc(CN2CCSc3ccc(C(=O)NCCc4ccccc4)cc32)cc1 | 0.2% | 0.7 |
| COc1ccc(OCc2ccc(-c3nc(C#N)c(N4CCN(c5cccc(Cl)c5)CC4)o3)o2)cc1 | 1.9% | -0.4 |
| Cc1nc(N2CCCC2)ncc1C(=O)Nc1ccc(F)cc1F | 4.4% | 1.8 |
| COc1ccc2nc(N(Cc3cccnc3)C(=O)COc3ccccc3)sc2c1 | -2.9% | -0.3 |
| COc1ccccc1CNC(=O)Cn1cc2c(n1)-c1c(oc(C(=O)N3CCOCC3)c1C)CC2 | 1.6% | -1.0 |
| O=C1CN(C(=O)c2ccc(S(=O)(=O)N3CCCC3)cc2)C(c2ccccc2)c2cc(Cl)ccc2N1 (stereo not drawn) | -2.0% | 0.4 |
| CCOCCc1nn2c(=O)cc(COC(=O)CNC(=O)c3cccc(C)c3)nc2s1 | -0.7% | -0.8 |
| Cc1c2cnn(-c3ccccc3)c(=O)c2c(C)n1C(C)C(=O)NCc1cccc(Br)c1 (stereo not drawn) | 3.1% | 5.7 |
| Cc1ccc(NC(=O)[C@@H](c2ccccc2)N2Cc3ccccc3C2=O)cc1 | 0.6% | 0.5 |
| COc1ccc(NC(=O)c2ccc3c(=O)n4nc(Nc5cccc(Cl)c5C)sc4nc3c2)cc1 | -0.1% | -0.1 |
| CC(=O)Nc1ccc2nc(SCc3ccccc3)sc2c1 | -1.5% | 0.5 |
| COc1cc2nc(N3CCCN(C)CC3)nc(NC3CC3)c2cc1OC | 1.4% | -0.5 |
| Cc1ccc(-c2nn(CC(=O)NC3CCCCC3)c3c2cnc2ccccc23)cc1 | -0.6% | -0.2 |
| O/N=C(/CBr)c1ccc2ccccc2c1 | 0.3% | -0.9 |
| CCOC(=O)c1c(NC(=O)COc2ccc(OC)cc2)sc(C(=O)N(CC)CC)c1C | 0.8% | 2.7 |
| Cc1sc2ccccc2[n+]1CCCCI | 0.8% | -0.4 |
| CC(C)Cn1c(=O)c2ccccc2n2c(CCC(=O)N3CCN(c4ccccc4)CC3)nnc12 | 1.2% | 1.4 |
| CCCNC(=O)c1c(NC(=O)c2ccccc2F)sc2c1CCCCC2 | 0.1% | -0.1 |
| COc1cccc(NC(=O)C2CCCN(c3ncnc4onc(-c5ccc(F)cc5)c34)C2)c1 (stereo not drawn) | 0.1% | 2.5 |
| O=C(NCCc1cccs1)c1ccc(Cn2c(SCc3ccc(F)cc3)nc3cccnc32)cc1 | -1.4% | 1.3 |
| CCOc1ccc2nc(N3CCC(C(=O)Nc4c(C)cccc4C)CC3)sc2c1 | 1.9% | -0.9 |
| Cc1ccc(NC(=O)Cn2nnc3sc4c(c3c2=O)CCC(C)C4)cc1 (stereo not drawn) | 0.4% | 3.5 |

High-throughput results: PubChem, National Center for Advancing Translational Sciences (NCATS)
